HIV Env fusion = inhibitors of HIV-1 Env-driven cell-cell fusion, primary screen, HeLa-JRFL effector, CEM21 target cells, luciferase; inhibition, % at 12.3 µM; actives 1.1% (n = 360,000);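 active = mean replicate inhibition score of at least 50 and every replicate individually at or above 50; inconclusive = only one of the two criteria met; inactive = mean below 50 and not all replicates reaching 50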;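 also: 0% = plate neutral controls and 100% = maraviroc near 300 nM; one replicate is shown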
Rce1 inhib = yeast Rce1p protease inhibitors, primary screen, biochemical, fluorescence, cell-free homogeneous | CAAX prenyl protease 2 (Saccharomyces cerevisiae (strain ATCC 204508 / S288c)), Q03530 | yeast membranes, quenched prenylated peptide cleavage fluorescence | calls only | actives 0.27% (n = 290,000) | AID 2563, 2010;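 active = fall in fluorescence gain of 50% or more versus controls, with final raw signal at or below 3038400; inconclusive = same 50% fall but final raw signal above 3038400; inactive = fall in fluorescence gain under 50%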;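 also: plate controls were neutral control wells for no effect and wells lacking membranes for full effect; tested at 10 µM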
Target sequence (Q03530 whole entry, looked up): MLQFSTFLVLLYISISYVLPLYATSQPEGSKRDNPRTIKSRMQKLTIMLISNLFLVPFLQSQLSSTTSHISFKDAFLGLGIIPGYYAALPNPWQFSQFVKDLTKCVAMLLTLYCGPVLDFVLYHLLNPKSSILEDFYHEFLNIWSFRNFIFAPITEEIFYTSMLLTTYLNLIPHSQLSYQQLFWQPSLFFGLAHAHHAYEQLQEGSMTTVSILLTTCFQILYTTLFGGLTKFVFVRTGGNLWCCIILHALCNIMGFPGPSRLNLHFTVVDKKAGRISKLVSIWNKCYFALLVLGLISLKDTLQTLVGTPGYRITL
eIF4H FP inh = human eIF4H binding inhibitors, primary screen, translation initiation inhibitor project, biochemical, uHTS, fluorescence polarization. inhibition, % at 35 µM. actives 0.94% (n = 290,000). eIF4H fluorescence polarization binding assay. AID 2012, 2009;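 active = 50% or more with normal probe brightness, or confirmed in later tests; inconclusive = above 50% with abnormal brightness, or retests that disagree; inactive = below 50% or failed in later tests; about a fifth of its hits are not listed in these tables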;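 also: calls also rest on retests at 20 µM and on dose response follow-up; 0% = protein and probe with vehicle and 100% = probe without protein; strong numbers were not always called active; many hits fall short of the cut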
MT1-MMP act inh = blockers of MT1-MMP proenzyme processing, primary screen, HT1080 RFP-PRO-GFP cells, GFP/RFP fluorescence; Matrix metalloproteinase-14 (Homo sapiens), P50281; GFP/RFP ratio fluorescence, overnight; percent of plate control window, DMSO zero; GFP/RFP ratio change, % at 20 µM; actives 0.061% (n = 360,000); AID 651647, 2012;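 active = GFP/RFP ratio change of at least 30% with cell ATP level not reduced by more than half and red fluorescence within 50% of control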; also: strong numbers were not always called active
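Test system: HT1080 cells expressing an RFP-PRO-GFP fluorescent reporter construct / Compound dosing: single-point 20 µM compound, 1% DMSO / Schedule: cells overnight before dosing, compound overnight, 37 °C, 5% CO2 / Evaluation: GFP/RFP fluorescence ratio / Control set: DMSO and RFP-L50D-GFP cell wells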
UUG fidelity = modulators of yeast start codon fidelity, primary screen, whole organism, S. cerevisiae, single point, plate reader; actives 0.13% (n = 350,000); AID 602363, 2012; S. cerevisiae UUG-firefly luciferase reporter, luminescence/redox ratio; activity score, % at 18.7 µM;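 active = replicate mean at a twofold rise or more, about +100% in these data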;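 also: firefly luciferase made from a UUG start codon reports start codon fidelity; reporter light over untreated wells divided by growth signal over untreated wells; some hits fall short of that in this replicate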
PABP polyA inh = PABP poly(A) RNA binding inhibitors, primary screen, biochemical, fluorescence polarization, uHTS; inhibition, % at 35 µM; actives 1% (n = 290,000); AID 2014, 2009; Polyadenylate-binding protein 1 (Homo sapiens), P11940;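 active = 50% or more with normal probe brightness, or confirmed in later tests; inconclusive = above 50% with abnormal brightness, or retests that disagree; inactive = below 50% or failed in later tests; about a fifth of its hits are not listed in these tables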;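 also: calls also rest on retests at 20 µM and on dose response follow-up; controls were probe without protein and protein plus probe with vehicle; some compounds called inactive have numbers as strong as hits; many hits fall short of the cut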
CSC inhib = cancer stem cell viability inhibitors, primary screen, luminescence | cancer stem cell-like cells viability | AID 2717, 2010 | inhibition, % at 7.5 µM | actives 1.1% (n = 300,000);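 active = mean at 75% or more and at least half the replicates too; inconclusive = mean and replicates disagree; tested in HMLE shEcad cells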;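 also: 0% = median of negative and 100% = median of positive control wells; the first replicate is given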
MT1-MMP act inh RFP = second read-out of MT1-MMP act inh, no call of its own (marks repeat the call); RFP signal change, %; measured here: RFP expression control read;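 0 = vehicle wells; hits needed this value within 50% of zero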
An asterisk follows results filed as active; i = inactive; ? = inconclusive; nt = no result given. Random draw from the library. About 2.9% of those tested had a hit in this group.

SMILES	HIV Env fusion	Rce1 inhib	eIF4H FP inh	MT1-MMP act inh	MT1-MMP act inh RFP	UUG fidelity	PABP polyA inh	CSC inhib
CC1=C(C(=O)OC2CCCCC2)C(c2ccccc2)NC(=O)N1 (stereo unspecified)	21	i	-8	-1	-6	-8	-3	-2
COC(=O)c1ccc(NC(=O)CCN2CCN(c3ccccc3)CC2)cc1	2	i	14	20	13	-10	3	2
Cc1cc(C)c(S(=O)(=O)n2c([N+](=O)[O-])cnc2C)cc1C	12	i	-2	-1	0	nt	2	-9
CCOC(=O)c1c(NC(=O)C2c3ccccc3Oc3ccccc32)sc(C(=O)N(CC)CC)c1C	nt	i	-15	-22	-24	4	5	14
O=C(OCC(=O)c1ccc[nH]1)c1cncc(Br)c1	3	nt	nt	-11	-3	-22	nt	nt
CCNC(=O)COC(=O)c1csc2c1CCCC2	8	i	1	-3	-3	-16	2	-24
Nc1nc(SCC(=O)c2ccc(F)cc2)n[nH]1	-2	i	3	1	2	-10	-7	nt
Cc1cc(OCC(=O)N(C)c2c(N)n(Cc3ccccc3)c(=O)[nH]c2=O)c(C(C)C)cc1Cl	-63	i	nt	-16	-9	nt	nt	-11
COC(=O)c1ccc(CSc2nncn2C)cc1	-92	i	-2	nt	nt	nt	-4	-15
C=CCn1c(C)cc(-c2csc(NCC)n2)c1C	-4	i	?	-11	11	nt	-7	10
COCc1ccc(C(=O)N2CCCC(C(=O)c3ccc(SC)cc3)C2)o1 (stereo unspecified)	2	i	-9	-1	-3	-2	-6	-16
CN[C@H]1C[C@H]2c3cc(N4CCN(C)CC4)ccc3CCN2C(=O)[C@H]1[C@H](C)O	-223	nt	nt	-2	2	-10	nt	nt
COc1cccc(C(=O)NCCNC(=O)c2cnccn2)c1	-14	i	0	2	2	-19	3	-11
CCOC(=O)Cc1csc(NC(=O)c2ccc([N+](=O)[O-])cc2[N+](=O)[O-])n1	-7	i	-6	2	-3	9	1	-10
O=C(Cn1ncc2c([nH]c3ccccc32)c1=O)N1CCCCC1	1	i	5	1	8	nt	-5	-10
COc1ccc(N2CCN(CC(=O)NC(C)c3ccccc3)CC2)cc1 (stereo unspecified)	25	i	-5	0	3	-10	2	-3
O=C(NCc1ccccn1)c1cccc(NS(=O)(=O)c2ccccc2)c1	-24	nt	nt	-1	0	-19	nt	-10
COc1ccc(-c2nc3ccc(C(=O)NCCCN4CCOCC4)cc3nc2-c2ccc(OC)cc2)cc1	-15	i	-16	0	0	5	3	-10
CCSc1nnc(NC(=O)C2CSC3(C)CCC(=O)N23)s1 (stereo unspecified)	nt	nt	nt	6	0	-7	nt	-19
CCN(c1ccc(C)cc1)S(=O)(=O)c1nnc(NC(=O)c2ccco2)s1	13	i	-4	8	1	14	5	1
COc1cccc(CNc2ccc(C)c(Cl)c2)c1	-4	i	6	-4	0	nt	4	7
O=C(COc1ccc(F)cc1)Nc1nnc(-c2ccncc2)s1	-75	i	2	-1	3	-11	8	0
COc1ccc(N2CCN(C3CC(=O)N(C)C3=O)CC2)cc1 (stereo unspecified)	nt	i	-10	-1	0	nt	-2	-8
CCn1c(/C=C/c2cc(Br)ccc2O)nc2ccccc2c1=O	10	i	-5	-1	-7	-30	3	-7

Reformatted as comma-separated lines: part of the list above
SMILES,HIV Env fusion,Rce1 inhib,eIF4H FP inh,MT1-MMP act inh,MT1-MMP act inh RFP,UUG fidelity,PABP polyA inh,CSC inhib
COc1ccc(N2CCN(CC(=O)NC(C)c3ccccc3)CC2)cc1 (stereo unspecified),25,i,-5,0,3,-10,2,-3
COc1cccc(CNc2ccc(C)c(Cl)c2)c1,-4,i,6,-4,0,nt,4,7

Next part
SMILES	HIV Env fusion	Rce1 inhib	eIF4H FP inh	MT1-MMP act inh	MT1-MMP act inh RFP	UUG fidelity	PABP polyA inh	CSC inhib
CCN(CC(=O)N1CCCC1)S(=O)(=O)c1ccc(F)cc1	-5	i	-11	5	2	-22	2	nt
Cc1cc(C)cc(NC(=O)CCN2CC(C)OC(C)C2)c1 (stereo unspecified)	-92	i	1	-4	0	-19	1	nt
CCn1ncc(Br)c1C(=O)Nc1ccc(C(=O)OC(C)C)cc1	10	i	7	-6	-5	0	6	12
CC(NC(=O)Nc1ccc([N+](=O)[O-])cc1)C(c1ccccc1)N1CCOCC1 (stereo unspecified)	14	i	0	1	2	nt	-4	8
CC1=Nc2ccc3ccccc3c2C1(C)C	18	i	?	-44	2	nt	?	2
Cc1ccc(CNc2ccc(N3CCOCC3)c(Cl)c2)cc1	-2	i	-6	3	-4	-5	2	10
CCCCCC(=O)NCc1c(C(F)(F)F)nn(C)c1N1CCOCC1	7	i	-3	-5	2	-1	-2	10
CCCNC(=O)C1(C)CCN(C(=O)c2ccc3snnc3c2)C1 (stereo unspecified)	20	nt	nt	-1	1	-23	nt	nt
COc1cc(Br)cc(/C=C/c2ccc3cccc(O)c3n2)c1OC	-2	i	12	5	-5	-24	-2	52
CCc1nnc(NC(=O)C2CCC(CNc3c(N4CCCCC4)c(=O)c3=O)CC2)s1 (stereo unspecified)	6	i	2	5	3	7	9	-20
CCN(CC)CCCNC(=O)c1cc2nc(-c3ccccc3)cc(C(F)(F)F)n2n1	-3	i	0	4	5	-20	-2	34
CC(=O)NCCC(=O)Nc1cc(S(=O)(=O)N2CCOCC2)ccc1N1CCOCC1	-1	i	-3	0	-1	nt	-15	-18
NC(=O)[C@H]1CC2(CC(c3cccc(NC(=O)[C@H]4CCC(=O)N4)c3)=NO2)CN1C(=O)c1ccccc1C(=O)c1ccccc1 (stereo partly specified)	20	i	2	-2	5	8	8	0
CCOc1ccc(NC(=O)CN2C(=O)/C(=C3\SC(=S)N(C4CCS(=O)(=O)C4)C3=O)c3ccccc32)cc1 (stereo unspecified)	8	nt	7	-7	1	-19	2	nt
O=C(COC(=O)Cn1cc(C(F)(F)F)ccc1=O)Nc1ccc(Br)cc1F	-58	nt	nt	2	4	-3	nt	nt
CC(=O)C1=C(C)NC(=O)NC1c1cc(Br)ccc1OCC(N)=O (stereo unspecified)	nt	i	4	2	4	-9	6	-8
COc1ccc2nc(N3CCCC(O)C3)c(C#N)cc2c1 (stereo unspecified)	-340	i	12	-8	5	-6	30	17
Cc1cccc(NC(=S)NC2CCN(Cc3ccccc3)CC2)c1C	9	i	5	nt	nt	nt	16	-4
Cc1cccc(N2CC(O)(c3cccs3)[N+]3=C2CCCCC3)c1 (stereo unspecified)	-19	i	-1	2	5	nt	-8	-15
Cc1cccc(-c2n[nH]c(=S)n2/N=C/c2ccc(C)s2)c1	-3	i	-1	9	-1	-10	4	29
Cn1c(CNC(=O)c2ccco2)nnc1SCC(=O)N1CCN(c2ccccc2)CC1	-10	i	-1	1	2	-18	-8	-7
O=S(=O)(NCc1ccccn1)c1ccccc1	-1	i	0	3	3	-24	-4	-9
O=C(Nc1ccc(F)cc1F)C1CCCN1S(=O)(=O)c1ccc(-c2ccc(=O)[nH]n2)s1 (stereo unspecified)	7	i	-5	-7	-2	-20	3	-2
Clc1ccc(CNc2ccc3nnc(-c4ccccc4)n3n2)cc1	-12	i	3	3	-1	-19	15	-1
CCOC(=O)N1CCN(C(=O)CCN2C(=O)/C(=C\c3ccccc3OC)SC2=S)CC1	nt	i	-4	-4	5	-13	1	2
CCOc1ccccc1N1CCN(CC(O)COC2CCCc3ccccc32)CC1 (stereo unspecified)	7	nt	4	3	4	-8	4	-1
FC(F)(F)c1nc(NCc2cccnc2)c2ccccc2n1	12	i	-10	-3	-6	2	1	-3
CCNc1cc2n(c(=O)n1)CCc1cc(OC)c(OC)cc1-2	-30	i	-2	8	0	-20	4	-14
S=C(Nc1cccc(Cl)c1)Nc1ccc2cn[nH]c2c1	-18	i	10	5	2	-15	6	nt
Cc1cccc2c1N(C)C(=O)C2=O	-38	i	-3	-3	9	nt	-10	-1
Cc1nnc(SCc2ccc(Cl)cc2)nc1/C=C/N(C)C	8	i	5	0	1	nt	7	27
COc1ccccc1-n1ccn(CC(=O)Nc2ccc(C)cc2Cl)c(=O)c1=O	-3	i	nt	-1	1	2	nt	-14
CCCCNC(=O)Nc1nnc(C(C)(C)C)s1	-10	i	-3	2	-1	-8	1	-6
COc1ccccc1NC(=O)CSc1nnc(NC(=O)C2CCC2)s1	-8	i	6	-1	-2	4	5	nt
O=C(Nc1ccc(Cl)c(Cl)c1)Oc1ccc(NC(=O)c2ccco2)cc1	33	i	-4	0	-3	-17	8	nt
O=C(Nc1ccc(NC(=O)c2sc3ccccc3c2Cl)cc1)c1ccco1	25	i	3	6	3	-10	6	4

Of the compounds above, 8 have fluorine:
SMILES	HIV Env fusion	Rce1 inhib	eIF4H FP inh	MT1-MMP act inh	MT1-MMP act inh RFP	UUG fidelity	PABP polyA inh	CSC inhib
Nc1nc(SCC(=O)c2ccc(F)cc2)n[nH]1	-2	i	3	1	2	-10	-7	nt
O=C(COc1ccc(F)cc1)Nc1nnc(-c2ccncc2)s1	-75	i	2	-1	3	-11	8	0
CCN(CC(=O)N1CCCC1)S(=O)(=O)c1ccc(F)cc1	-5	i	-11	5	2	-22	2	nt
CCCCCC(=O)NCc1c(C(F)(F)F)nn(C)c1N1CCOCC1	7	i	-3	-5	2	-1	-2	10
CCN(CC)CCCNC(=O)c1cc2nc(-c3ccccc3)cc(C(F)(F)F)n2n1	-3	i	0	4	5	-20	-2	34
O=C(COC(=O)Cn1cc(C(F)(F)F)ccc1=O)Nc1ccc(Br)cc1F	-58	nt	nt	2	4	-3	nt	nt
O=C(Nc1ccc(F)cc1F)C1CCCN1S(=O)(=O)c1ccc(-c2ccc(=O)[nH]n2)s1 (stereo unspecified)	7	i	-5	-7	-2	-20	3	-2
FC(F)(F)c1nc(NCc2cccnc2)c2ccccc2n1	12	i	-10	-3	-6	2	1	-3

Next section.
SMILES	HIV Env fusion	Rce1 inhib	eIF4H FP inh	MT1-MMP act inh	MT1-MMP act inh RFP	UUG fidelity	PABP polyA inh	CSC inhib
O=C(OCC(=O)N1CCOCC1)c1ccc(Br)cc1	-14	i	-1	3	-1	-11	6	-12
COc1cc(C)ccc1OCc1cc(C(=O)NCCN2CCOCC2)no1	nt	i	1	2	3	-14	-10	-7
CC(=O)Nc1ccc(S(=O)(=O)N2CCN(S(=O)(=O)c3cccs3)CC2)cc1	-9	nt	nt	-2	3	5	nt	nt
CCN(Cc1ccncc1)C(=S)NCc1ccccc1	0	i	-7	-2	0	nt	-12	4
CCCNC(=O)c1ccc(Cl)cc1Cl	-14	i	0	-1	5	-11	-15	-2

Compound activity: PubChem BioAssay, several laboratories
